Bioassay records from PubChem BioAssay.
YopH PTP inh – YopH tyrosine phosphatase inhibitors, primary screen, biochemical, fluorescence Ex485/Em525. YopH tyrosine phosphatase [Yersinia enterocolitica]. inhibition, %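 (about 10 µM by stock and volumes)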. 0.16% of 140,000 active. AID 898, 2007;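 active = inhibition of 50% or more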;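 note: controls were vehicle for no effect and minimum signal wells for full effect; inactives centre near -20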
RecA intein inh – Mtb RecA intein splicing inhibitors, primary screen, biochemical, fluorescence, HTS; cell-free RecA intein splicing; inhibition, %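 (about 9 µM by stock and volumes)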; 0.75% of 290,000 active; Protein RecA (Mycobacterium tuberculosis (strain ATCC 25618 / H37Rv)), P9WHJ3; in the data active = inhibition above about 30%; inconclusive = no clear call, values can overlap the other calls;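 note: 0% = vehicle wells and 100% = reference inhibitor control wells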
Target sequence (P9WHJ3 whole entry, looked up): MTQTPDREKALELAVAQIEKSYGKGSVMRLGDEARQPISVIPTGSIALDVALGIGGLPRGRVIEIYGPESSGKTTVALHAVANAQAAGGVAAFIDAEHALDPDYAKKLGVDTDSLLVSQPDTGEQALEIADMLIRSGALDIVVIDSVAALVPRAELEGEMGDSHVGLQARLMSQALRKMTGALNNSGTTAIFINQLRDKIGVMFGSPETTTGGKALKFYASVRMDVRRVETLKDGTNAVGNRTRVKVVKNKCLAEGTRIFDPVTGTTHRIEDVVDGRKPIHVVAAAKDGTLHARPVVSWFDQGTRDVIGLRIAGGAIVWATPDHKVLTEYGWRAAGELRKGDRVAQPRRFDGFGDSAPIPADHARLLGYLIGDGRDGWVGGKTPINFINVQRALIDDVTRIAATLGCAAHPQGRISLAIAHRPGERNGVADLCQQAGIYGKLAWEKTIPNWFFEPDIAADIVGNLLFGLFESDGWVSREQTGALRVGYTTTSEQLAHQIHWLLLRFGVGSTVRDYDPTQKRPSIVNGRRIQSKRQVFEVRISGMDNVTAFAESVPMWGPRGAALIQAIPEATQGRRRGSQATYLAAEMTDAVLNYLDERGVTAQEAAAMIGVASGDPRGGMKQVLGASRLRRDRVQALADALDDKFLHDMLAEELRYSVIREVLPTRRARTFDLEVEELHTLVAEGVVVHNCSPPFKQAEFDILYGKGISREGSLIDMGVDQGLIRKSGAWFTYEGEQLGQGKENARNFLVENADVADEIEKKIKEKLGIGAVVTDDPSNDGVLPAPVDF
Mtb betalactam – beta-lactam sensitization of Mtb H37Rv, H37Rv; 0.27% of 330,000 active; M. tuberculosis H37Rv growth with meropenem, percent inhibition; hits of this screen are not shown here; inhibition, % at 25 µM;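 active = about 74% or more and at least 40 points above the plate without the antibiotic, then above 30% in a dose series; inconclusive = first-round hits that could not be retested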;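 note: growth measured after seven days incubation then overnight dye step; 0% = bacteria only wells and 100% = bacteria with antibiotic; twin plates without the antibiotic show which effects depend on it; some results filed as inactive read as strong as hits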
Arbovirus inh – antivirals against arbovirus infection, primary screen, cell-based, full library, 10K replicate subset; arbovirus infection cell-based antiviral screen; inhibition, % at 10 µM; 0.37% of 200,000 active;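 active = inhibition from about 30%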;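 note: bluetongue infection of BSR cells; cell survival read as ATP light after 72 h; 0% = infected wells without compound and 100% = uninfected wells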
Mtb growth – M. tuberculosis H37Rv growth inhibitors, H37Rv strain (AID 1626); M. tuberculosis H37Rv growth inhibition; higher % means a stronger effect; one-dose inhibition, % at 10 µM; IC50 in µM for titrated hits; 0.95% of 220,000 active;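 active = confirmed in a dose series; inconclusive = inhibition above 80% but not taken into the dose series; inactive = below 80% or under 30% at every dose of the series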;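 note: bacteria incubated seven days before Alamar blue readout; 0% = bacteria only wells and 100% = bacteria with antibiotic wells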
Arbovirus inh repeat – further read-out of Arbovirus inh, marked with its call; inhibition, %; measured here: 10K subset replicate screen; many hits read low in the repeat;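 first of two repeat runs on a subset; 0% = infected and 100% = uninfected wells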
* marks the source's active call; other numbers are inactive results; ? = inconclusive; · = not tested or not shown. An excerpt. The share of hits here may be higher or lower than overall.

The first four entries (preview)
SMILES	YopH PTP inh	RecA intein inh	Mtb betalactam	Arbovirus inh	Mtb growth	others
CC1CCN(CCCNC(=O)COc2cc(=O)n(C)c3ccccc23)CC1	-27.7	-6.3	?	-3.9	-0.3%
CC1(C)CC(=O)C2=C(C1)N(Cc1cccnc1)C(=O)C2(NC(=O)c1ccc(F)cc1)C(F)(F)F (stereo not drawn)	9.3	1.0	-7.8	·	-3.3%
CN(C)C1=NCCN1CCC1CCCC1	·	0.9	-5.7	·	·
COc1ccccc1NC1(C#N)CCCCC1	·	0.5	-1.1	5.2	-4.5%

All compounds of this part, from the first entry:
SMILES	YopH PTP inh	RecA intein inh	Mtb betalactam	Arbovirus inh	Mtb growth	others
CC1CCN(CCCNC(=O)COc2cc(=O)n(C)c3ccccc23)CC1	-27.7	-6.3	?	-3.9	-0.3%
CC1(C)CC(=O)C2=C(C1)N(Cc1cccnc1)C(=O)C2(NC(=O)c1ccc(F)cc1)C(F)(F)F (stereo not drawn)	9.3	1.0	-7.8	·	-3.3%
CN(C)C1=NCCN1CCC1CCCC1	·	0.9	-5.7	·	·
COc1ccccc1NC1(C#N)CCCCC1	·	0.5	-1.1	5.2	-4.5%
COc1ccc(/C=C/C(=O)c2cc(F)ccc2OC(=O)c2ccccc2)cc1OC	-39.4	-0.6	24.7	·	0.9%
Cc1ccc(CS(=O)Cc2ccc(C(=O)N3CCN(C4CCCCC4)CC3)o2)cc1 (stereo not drawn)	·	5.2	-16.1	·	·
COc1ccc(C(=O)C(C)[n+]2ccc(-c3nnc4n3CCCCC4)cc2)cc1 (stereo not drawn)	·	-0.8	-3.3	·	-7.4%
CCCCN(C)C(=O)c1ccc(S(=O)(=O)N2CCOCC2)cc1	-20.7	3.6	-0.5	2.1	-1.5%
Fc1ccccc1Cc1noc(CN2CCN(c3ccc(Cl)cn3)CC2)n1	·	1.0	1.8	13.0	3.1%
CCN(CC)CCCNC(=O)C1c2ccccc2Oc2ccccc21	-8.1	-1.7	-10.4	2.0	8.5%
CCCCOc1ccc(C(=O)N(Cc2ccccc2)C2CCS(=O)(=O)C2)cc1 (stereo not drawn)	·	1.2	-13.8	·	·
Cc1oc(-c2cccc(Cl)c2)nc1CN1CCC(C(=O)N2CCN(c3ccccc3F)CC2)CC1	·	2.4	93.4	-28.4	·	Arbovirus inh repeat=-13.7
COc1ccc(Nc2nc(=O)c3cc([N+](=O)[O-])ccc3s2)cc1	·	5.8	·	·	-5.6%
O=C(Nc1ccccc1)N1CCC(n2c(=O)[nH]c3ccccc32)CC1	-34.2	-1.4	1.7	5.2	-3.4%
CC(C)(C)C1=C(C#N)C(c2cccnc2)C(C#N)=C(N)O1 (stereo not drawn)	5.8	-3.6	-1.6	3.4	-1.7%

Four successive records already listed, quoted:
SMILES	YopH PTP inh	RecA intein inh	Mtb betalactam	Arbovirus inh	Mtb growth	others
Cc1ccc(CS(=O)Cc2ccc(C(=O)N3CCN(C4CCCCC4)CC3)o2)cc1 (stereo not drawn)	·	5.2	-16.1	·	·
COc1ccc(C(=O)C(C)[n+]2ccc(-c3nnc4n3CCCCC4)cc2)cc1 (stereo not drawn)	·	-0.8	-3.3	·	-7.4%
CCCCN(C)C(=O)c1ccc(S(=O)(=O)N2CCOCC2)cc1	-20.7	3.6	-0.5	2.1	-1.5%
Fc1ccccc1Cc1noc(CN2CCN(c3ccc(Cl)cn3)CC2)n1	·	1.0	1.8	13.0	3.1%

Continued:
SMILES	YopH PTP inh	RecA intein inh	Mtb betalactam	Arbovirus inh	Mtb growth	others
O=C(NCC(=O)N(Cc1cccs1)C(C(=O)NC1CCCCC1)c1ccncc1)c1ccco1 (stereo not drawn)	-14.7	2.9	-1.4	0.7	-7.1%
COc1ccc(C2C3=C(CC(C)(C)CC3=O)Nc3c2c(=O)n(C)c(=O)n3C)cc1OC (stereo not drawn)	·	-8.5	-5.9	18.4	7.5%
CN1/C(=C\C(=O)c2ccco2)c2ccccc2CC1(C)C	-32.9	·	9.4	-4.0	-3.7%
OCC1CCCN1C(=S)Nc1ccccc1 (stereo not drawn)	-28.6	-4.9	-5.6	1.9	10.7%
Cc1cc(Br)ccc1N=C1NC(=O)CS1	·	-3.6	3.1	·	·
Cc1cc(=O)n(Cc2ccc(OC(C)C)cc2)c(=S)[nH]1	·	-0.6	-13.6	-15.0	2.3%
COC(=O)c1ccccc1NC(=O)c1cc2sccc2n1C	-1.7	0.6	5.3	-1.8	-5.9%
O=C(Nc1ccc(N2CCOCC2)c(C(=O)O)c1)c1ccco1	-22.6	·	·	4.5	-5.0%
Cc1cccc(NC(=O)CSCC(=O)N2CCCc3ccccc32)c1	·	-5.3	-15.8	·	·
C=CCn1c(SCC(=O)N2CCc3ccccc3C2)nc2sc(C)c(C)c2c1=O	-22.7	2.9	-4.2	-3.8	8.1%
CCOC(=O)C(=O)NC12CC3CC(CC(C3)C1)C2	-13.2	-0.7	8.8	-2.4	32.1%
Cc1nc2ccsc2c(=O)n1-c1cccc(Cl)c1	·	-1.1	5.9	·	·
Cc1ccc(/C=N/NC(=O)c2sccc2OCc2ccc(F)cc2)cc1	-20.0	-0.5	14.1	-22.6	-0.1%
COc1ccccc1-c1cc(N)n(S(=O)(=O)c2cccc3nsnc23)n1	·	0.7	-12.9	·	6.1%
O=C(Cn1cc(C(F)(F)F)ccc1=O)N1CCN(S(=O)(=O)c2ccc(Cl)cc2)CC1	-37.9	-0.5	-7.9	4.4	-1.4%
CCCCCCCCC(=O)NCCOc1ccccc1	-25.3	-1.0	7.3	0.6	7.6%
CC1CCc2sc(C(=O)N/N=C/C3CCCCC3)cc2C1 (stereo not drawn)	-14.6	2.6	13.8	-6.0	8.4%
CC(=O)N/N=C(\C)c1ccc(Br)cc1Br	·	-0.4	2.2	-5.0	1.9%
C=CCn1c(=O)c2ccccc2n2c(SCC(=O)O)nnc12	·	-2.0	-4.3	·	·
COc1ccc(Cl)cc1C(=O)Nc1ccc(S(N)(=O)=O)cc1	·	·	-7.8	·	-0.6%
COc1cc(C(C)=O)ccc1OCC(O)Cn1nc(C)c(C(C)=O)c1C (stereo not drawn)	·	-1.5	-9.1	·	·
Cc1ccc(OCCn2cc(/C=C(\C#N)C(=O)NCC3CCCO3)c3ccccc32)cc1 (stereo not drawn)	-15.3	6.0	17.4	-6.7	7.3%
COc1ccccc1C(=O)Nc1ccc(S(=O)(=O)Nc2nccs2)cc1	·	3.5	-7.3	·	·
CCOC(=O)c1cnc2ccc(C)cc2c1NCCN1CCOCC1	·	0.6	1.2	·	·
CS(=O)(=O)N1CCC(C(=O)Nc2ccc(C(N)=O)cc2)CC1	·	-0.2	-16.6	·	·
COc1ccc(S(=O)(=O)Nc2ccc(CC#N)cc2)cc1	-20.7	·	1.5	5.8	16.4%
CCCC(=O)NCc1cc(-c2nn(C)c(=O)c3ccccc23)ccc1C	-34.4	0.0	-7.2	-4.8	-8.6%
CC1CN(S(=O)(=O)c2ccc(C(=O)N(CCCN(C)C)c3nc4cc5c(cc4s3)OCCO5)cc2)CC(C)O1 (stereo not drawn)	·	0.8	-3.3	·	·
COc1ccc(N2CCN(C(=O)c3ccc4c(=O)n(Cc5ccc6c(c5)OCO6)c(=O)[nH]c4c3)CC2)cc1	·	-0.4	5.5	·	·
COc1ccc(CN2CC(=O)N(c3ccccc3OC)C2=S)cc1OC	·	0.8	5.9	·	·
COc1cc(/C=N/NC(=O)c2cc(-c3ccco3)nc3ccccc23)cc(OC)c1O	·	-3.1	-2.9	·	-12.3%
COC(=O)[C@@H](NC(=O)/C=C/c1ccc(OC)cc1)C(C)C	·	-1.9	-4.5	6.9	4.5%
COCCn1c(SCC(=O)Nc2nnc(C)s2)nnc1-c1ccoc1C	·	-3.8	-1.4	3.1	-0.6%
Cn1c(=O)c2c(nc(SCC(=O)NCC3CCCO3)n2C)n(C)c1=O (stereo not drawn)	-50.7	2.8	3.8	-1.2	-1.4%
Cn1c(=O)c2ccccc2n(CC(=O)N2CCCc3ccccc32)c1=O	·	-2.3	3.4	·	·
COC(=O)CC(NC(=S)N1CC2C[C@@H](C1)Cn1c2cccc1=O)C(=O)OC (stereo partly drawn)	·	0.3	-7.3	·	·
Cc1ccc(C2c3sc(=O)[nH]c3SC3C4CC(C5C(=O)N(C(C)C(=O)O)C(=O)C45)C23)cc1 (stereo not drawn)	17.8	-8.1	-2.3	2.4	-6.0%
C=C(C)c1cccc(C(C)(C)NC(=O)NCc2cccnc2)c1	·	1.5	-1.3	-2.3	-3.2%
OC1O[C@H](c2ccc3c(c2)OCO3)[C@H]2CO[C@H](c3ccc4c(c3)OCO4)[C@@H]12 (stereo partly drawn)	·	-2.3	-18.6	·	-2.8%
COc1ccc(-c2nnc(NC(=O)C3CCCN3S(=O)(=O)c3cccs3)o2)cc1 (stereo not drawn)	·	-0.4	0.7	·	·
Nc1cc(=O)[nH]c(SCC(=O)NNC(=O)Cc2ccccc2)n1	·	-0.9	-4.7	2.9	-5.2%
Cc1c(C(=O)OCCOC(C)C)[nH]c2c1C(=O)CC(c1ccco1)C2 (stereo not drawn)	-23.3	-0.1	-2.2	-6.5	-4.2%	Arbovirus inh repeat=-6.4
Cc1ccc(C(=O)NC(=S)NNC(=O)c2ccccc2O)cc1	·	20.6	42.1	·	·
COc1ccc(C(=O)Nc2cccc3c2CCCC3)cc1	·	0.1	11.0	·	·
CCOc1ccc(C(=O)NCCN2CCCC2)cc1	·	-5.9	6.3	-1.6	-10.8%
CC(C)CC(NC(=O)CCC(=O)OCC(=O)[C@@]1(O)CCC2[C@@H]3CCC4=CC(=O)C=C[C@]4(C)C3[C@@H](O)C[C@@]21C)C(=O)O (stereo partly drawn)	·	-1.1	-12.6	·	·
O=C(NCCCCCCNC(=O)c1cccs1)c1cccs1	·	1.0	-3.5	1.8	-0.9%
Cc1cc(C(=O)N/N=C/c2ccncc2)c2ccccc2n1	·	-0.7	-2.4	·	·
CCn1c(SCC(=O)N/N=C/c2ccc(OC)c(OC)c2)nc2ccccc21	-24.0	1.0	29.6	-0.8	-1.4%
Nc1nnc(SCCN2C(=O)c3ccccc3C2=O)s1	-18.7	-3.9	-3.2	-2.9	-5.2%
O=C(c1ccccc1)N1C(=O)C(c2ccccc2)Oc2ccccc21 (stereo not drawn)	·	-1.6	-2.5	·	-8.2%
COc1ccc2oc(=O)c(C(=O)OCc3ccccc3)cc2c1	·	-21.8	8.2	·	·
COCC(=O)N1CCC(Oc2ccc(C(=O)N[C@H](C(=O)OC)C(C)C)cc2)CC1	·	2.7	3.8	·	·
CCOC(=O)Cn1nc(C)cc1NC(=O)c1cc(OC)c(OC)c(OC)c1	·	0.1	-6.8	·	·
O=C(CC(c1ccco1)S(=O)(=O)c1ccccc1)c1ccccc1 (stereo not drawn)	·	·	-2.2	5.7	-1.0%
CC(=O)N1N=C(c2ccccc2)OC1c1ccc([N+](=O)[O-])s1 (stereo not drawn)	·	2.2	99.6	-27.7	-3.7%
Cn1c(CCNS(=O)(=O)c2ccc(F)cc2)nnc1SCc1cccnc1	·	-4.8	-4.8	·	·
COc1cc(SC)ccc1C(=O)Nc1ccccc1C#N	5.4	2.0	1.7	-4.6	-2.9%
CC1=NN(c2ccccc2)C(=O)C1/C=C1\C(=O)NC(=O)N(c2ccc(C)c(C)c2)C1=O (stereo not drawn)	-16.5	41.0*	7.1	1.5	·
Cc1cc(Cl)ccc1C(=O)C1CCCN(C(=O)c2nonc2C)C1 (stereo not drawn)	·	6.8	-1.2	·	·
Cc1cc(SCC(=O)NN=C2CCN(C(C)C)CC2)c(C)cc1Br	-31.6	2.8	1.9	-10.2	5.9%
COc1cc(C2CC(=O)NC3=C2C(=O)CC(C)(C)C3)cc(OC)c1O (stereo not drawn)	-25.2	-6.5	5.0	5.1	-7.5%
